PINK1 expr mod = A Quantitative High throughput Screen to Identify Chemical Modulators of PINK1 Expression; PINK1 immunofluorescence, high-content cytometry, 24 h; Potency, µM (series often up to 76.6 µM), inactives show top-dose activation (PINK1 increase), most hits filed as activators; 0.2% of 410,000 active; active = well fitted activation curve with a large enough effect; inconclusive = small, poorly fitted or top-dose-only effect; inactive = flat fitted curve, though single readings scatter; cell line not stated here;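 further: potency means the concentration at half of the fitted maximal effect; % of control where 0% means no effect; nearly all actives have a fitted effect of over 65% in size; a mitochondrial uncoupler was the plate control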
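A stable cell line was treated with compounds at 5 concentrations for 24 hours, with CCCP as control. PINK1 levels and mitochondrial localization were measured by immunofluorescence with mitochondrial, cell and nuclear markers after fixation, read by laser-scanning cytometry.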
TRPML1 agonist = qHTS for Agonists of the Human Mucolipin Transient Receptor Potential 1 (TRPML1). Mucolipin-1 (Homo sapiens), Q9GZU1. TRPML1-expressing cells, Ca2+ dye fluorescence, FDSS; host cell line not named in the record; reference of the full effect not given here. activation, % (test concentration not listed). 0.12% of 410,000 active. AID 624414, 2012; in the data active = activation above about 50%; inconclusive = about 30% to 50%; inactive = below about 30%; further: 0% is about no effect; the text of the record puts the active cut at 80%
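Agonist activity was taken from a 110 s kinetic Ca2+ dye read on the FDSS after pinning compounds onto TRPML1-DL cells. The cells were seeded at 1,500/well with Tet inducer, incubated about 16 h, then dye-loaded at room temperature.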
D2 PAM = Beta-Arrestin HTS for Positive Allosteric Modulators of the Human D2 Dopamine Receptor: Potentiators; D(2) dopamine receptor (Homo sapiens), P14416; DiscoveRx D2 beta-arrestin cells, luminescence, 90 min; 100% = 57 uM dopamine signal; potentiation, % (concentration not given with the values); 0.23% of 360,000 active; active = potentiation of 50% or more; inconclusive = 30% to 50%; inactive = 30% or less;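 further: compound concentration not given in the record; tested on top of an EC20 dose of dopamine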
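D2 cells co-treated with compound plus 50 nM dopamine (EC20) for 90 min at 37 deg C to detect potentiation. Beta-arrestin recruitment was read as enzyme-fragment luminescence after 1 h at ambient temperature. Full response was set by 57 uM dopamine.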
Six1-Eya2 blk = qHTS Assay for Inhibitors of the Six1/Eya2 Interaction; activity change, % (no concentration beside the values); Homeobox protein SIX1 (Homo sapiens) + Protein phosphatase EYA2 (Homo sapiens), …; AlphaScreen GST-Six1/His-Eya2 binding, biochemical; hits give low values; control for the full effect not named in the record; 0.56% of 360,000 active; AID 651725, 2012; in the data active = activity change below about -65%; inconclusive = about -30% to -65%; inactive = above about -30%; further: on the % scale 0 is the no-effect control and ±100 the full control effect; compound concentration not given in the record
Target sequence (O00167 whole entry, looked up): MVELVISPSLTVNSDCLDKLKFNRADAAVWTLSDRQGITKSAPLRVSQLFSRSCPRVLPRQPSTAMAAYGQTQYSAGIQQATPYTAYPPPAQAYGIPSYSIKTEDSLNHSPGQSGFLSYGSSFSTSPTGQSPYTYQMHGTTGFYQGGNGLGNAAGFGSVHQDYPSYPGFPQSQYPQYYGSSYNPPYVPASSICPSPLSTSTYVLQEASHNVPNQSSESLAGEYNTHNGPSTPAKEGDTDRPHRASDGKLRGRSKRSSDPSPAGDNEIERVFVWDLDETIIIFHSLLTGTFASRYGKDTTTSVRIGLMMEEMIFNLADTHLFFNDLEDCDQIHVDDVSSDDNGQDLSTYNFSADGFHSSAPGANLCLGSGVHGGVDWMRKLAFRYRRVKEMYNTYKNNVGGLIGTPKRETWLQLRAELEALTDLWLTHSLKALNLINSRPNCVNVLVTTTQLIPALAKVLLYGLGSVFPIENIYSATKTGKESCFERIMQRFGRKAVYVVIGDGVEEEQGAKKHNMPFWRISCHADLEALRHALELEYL
Target sequence (Q15475 whole entry, looked up): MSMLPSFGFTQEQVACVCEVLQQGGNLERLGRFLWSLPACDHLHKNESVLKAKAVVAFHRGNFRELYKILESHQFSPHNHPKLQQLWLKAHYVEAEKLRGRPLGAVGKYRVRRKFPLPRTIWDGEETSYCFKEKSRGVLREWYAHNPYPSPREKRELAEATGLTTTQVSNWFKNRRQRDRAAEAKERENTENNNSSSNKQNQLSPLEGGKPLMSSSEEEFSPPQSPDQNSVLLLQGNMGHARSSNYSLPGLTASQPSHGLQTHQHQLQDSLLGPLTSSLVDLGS
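Compounds are tested against tagged Six1 and Eya2 proteins bridged by glutathione donor and nickel acceptor beads; after a one-hour incubation at 37 °C without light, AlphaScreen emission is recorded.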
CtBP-E1A blk = qHTS Assay for Inhibitors of the CtBP/E1A Interaction. CtBP / adenovirus E1A interaction (AlphaScreen). AlphaScreen GST-E1A/His-CtBP binding, 1536-well; hits give low values; control for the full effect not named in the record. activity change, % (no concentration beside the values). 0.49% of 340,000 active. AID 651724, 2012; in the data active means activity change below about -65%; inconclusive means about -30% to -65%; inactive means above about -30%; further: on the % scale 0 is the no-effect control and ±100 the full control effect; compound concentration not given in the record
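GST-E1A and His-tagged CtBP (125 nM each as 5X stock) were preincubated with pin-transferred compound for 2 h at 37 °C in the dark, then glutathione donor and nickel acceptor beads were added for 1 h before AlphaScreen reading.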
D2 agonist = Beta-Arrestin HTS for Positive Allosteric Modulators of the Human D2 Dopamine Receptor: Agonists; AID 624465, 2012; 0.084% of 360,000 active; activation, % (test concentration not listed); DiscoveRx PathHunter D2 beta-arrestin, luminescence, 90 min; 100% = 57 uM dopamine signal; in the data active = activation above about 40%; inconclusive = about 15% to 40%; inactive = below about 15%; further: compound concentration not given in the record; the text of the record calls up to 30% inactive
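DiscoveRx PathHunter D2 beta-arrestin cells (2,100/well) attached overnight, then compound-stimulated 90 min at 37 C in HBSS/10 mM HEPES/0.1% Tween-20 buffer; beta-galactosidase complementation read by luminescence after 1 h at ambient temperature. Dopamine 57 uM final (EC100) as control.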
An asterisk follows results filed as active; ? = inconclusive; / = no result given; [ ] = dose if it differs, or a comment. Random draw from the library. Share with any hit: about 1.3%.

Start of the listing, in advance (5 entries):
SMILES	PINK1 expr mod	TRPML1 agonist	D2 PAM	Six1-Eya2 blk	CtBP-E1A blk	D2 agonist
O=C(NC(=S)Nc1cccc(Cl)c1N1CCCCC1)c1cccs1	?	1.9	-13	-16	-21	-4.0
N=c1c(C(=O)NCC2CCCO2)cc2c(=O)n3ccccc3nc2n1Cc1ccccc1Cl (stereo unspecified)	-1.8%	0.7	-6	5	-3	-4.5
O=C(NCc1ccc(F)cc1)Nc1ccccc1	-0.6%	-0.3	-1	6	6	-0.8
CC1Cc2nc(SCC(=O)N3CCOCC3)n(-c3ccccc3)c(=O)c2S1 (stereo unspecified)	-0.2%	0.0	-1	1	1	-3.3
Cn1c(NNC(=O)C(c2ccccc2)c2ccccc2)cc(=O)n(C)c1=O	-0.2%	-0.6	5	1	12	-0.1

Results, repeating the preview:
SMILES	PINK1 expr mod	TRPML1 agonist	D2 PAM	Six1-Eya2 blk	CtBP-E1A blk	D2 agonist
O=C(NC(=S)Nc1cccc(Cl)c1N1CCCCC1)c1cccs1	?	1.9	-13	-16	-21	-4.0
N=c1c(C(=O)NCC2CCCO2)cc2c(=O)n3ccccc3nc2n1Cc1ccccc1Cl (stereo unspecified)	-1.8%	0.7	-6	5	-3	-4.5
O=C(NCc1ccc(F)cc1)Nc1ccccc1	-0.6%	-0.3	-1	6	6	-0.8
CC1Cc2nc(SCC(=O)N3CCOCC3)n(-c3ccccc3)c(=O)c2S1 (stereo unspecified)	-0.2%	0.0	-1	1	1	-3.3
Cn1c(NNC(=O)C(c2ccccc2)c2ccccc2)cc(=O)n(C)c1=O	-0.2%	-0.6	5	1	12	-0.1
CC(C)[C@H](NC(=O)c1ccco1)C(=O)OCC(=O)Nc1ccc(F)cc1	-0.4%	0.1	-31	0	1	-1.0
CN(CC(=O)Nc1ccc(N2CCOCC2)cc1)C(=O)C12CC3CC(CC(C3)C1)C2	-1.6%	-0.5	14	-11	-20	-1.7
COc1ccc(S(=O)(=O)N2CCCC2C(=O)Nc2nccs2)cc1 (stereo unspecified)	11%	-0.4	-1	5	4	-1.2
CC(C)CCn1c(N2CCOCC2)nc2c1c(=O)n(CC(N)=O)c(=O)n2C	2.2%	0.7	-3	2	4	-1.9
CCN(CC)CC(=O)Nc1c(Br)ccc2c1OCO2	-1.9%	-0.1	-12	0	-4	-1.0
CNc1nc(-c2ccccc2)nnc1C(F)(F)F	-1.1%	-1.0	-3	-9	-5	-5.8
CCC1(c2ccccc2)SCC(c2ccccc2)=NC1=O (stereo unspecified)	-0.1%	5.3	-4	-9	-5	3.1
COCCCNC(=S)NCCNc1nc2c(C)c(C)ccc2cc1C#N	4.7%	-0.5	-9	-7	1	3.9
CCCCc1c(O)nc(SCC(=O)N2CCCCC2)[nH]c1=O	-2.0%	-0.2	-4	2	1	-1.4
CCN1CCN(C(=O)CCNC(=O)Cn2ccc3ccccc3c2=O)CC1	-2.6%	-0.7	-4	0	2	-1.9
COc1ccc(CNC(=O)Nc2cccs2)cc1OC	-0.4%	-0.1	3	-1	-3	-1.2
C[C@@H]1CN([C@@H](C)CO)S(=O)(=O)c2ccc(Br)cc2O[C@H]1CN(C)C(=O)C1CCCCC1	1.6%	0.3	-7	37	6	-9.5
Cc1ccc(S(=O)(=O)N2CCN(CCO)CC2)cc1-c1nnc2c3ccccc3c(C)nn12	-3.4%[38.3 µM]	0.2	-14	-9	-8	-1.8
CCOc1cccc(/C=N/NC(=O)c2ccc3c(c2)OCCO3)c1O	-0.4%	-0.7	-9	?	-87*	-4.2
CC/C(C)=N/Nc1nc2c(c(=O)[nH]c(=O)n2C)n1Cc1ccccc1	0.1%	-0.4	-2	-24	-13	-3.4
CN(C)CCN1CCN([C@H]2CS(=O)(=O)N[C@@H]2COCc2ccccc2)CC1	-1.1%	-0.2	-6	13	-21	-3.2
O=C(c1cc(COc2c(F)cccc2F)on1)N1CCN(C2CCCCC2)C(=O)C1	-0.3%	-0.7	-6	6	5	-1.3
O=C(Nc1ccccc1Cl)c1ccccc1Cl	4.1%[38.3 µM]	0.7	-2	6	5	0.0
CC1=C(C(N)=O)C(c2ccccn2)n2nc(SCc3ccccc3Cl)nc2N1 (stereo unspecified)	-0.8%	-0.5	-3	1	-3	-2.7
COc1ccc(NC(=O)CCCOc2ccc(C)cc2)cc1S(=O)(=O)N1CCCCC1	2.1%	1.3	-26	-3	-1	-1.3
O=C(NCCc1ccc(F)cc1)c1cccs1	1.7%	0.6	-2	9	-1	-3.2
CCOC(=O)c1ccc(NS(=O)(=O)c2cn(C)cn2)cc1	-1.0%	1.0	-5	0	/	-4.7
CC/C(=N\NC(=S)NC(C)C)c1ccc(OC)c(OC)c1	3.5%	0.9	-10	-14	?	-2.1
COc1cc(S(=O)(=O)Nc2c(C)nn(C)c2C)ccc1NC(C)=O	1.4%	0.7	11	-1	5	2.4
CNC(=O)c1csc(-c2cccs2)n1	1.4%	-0.7	-6	0	1	-0.9
Cc1ccccc1C(=O)N1CCC(C(=O)Nc2ccc(C(C)C)cc2)CC1	0.1%	0.9	-9	4	5	-1.5
Oc1ccc(N=Cc2ccc(O)c(O)c2)cc1	0.7%	-0.4	83*	?	-24	?
Cc1cc(C)c2nc(N3CCC(C(=O)NCc4ccccn4)CC3)sc2c1	2.5%	-1.2	-4	-2	/	2.9
CN1N=C2c3ccccc3CCCC2C1c1ccc(F)cc1 (stereo unspecified)	?	0.2	-9	17	14	-0.2
COc1cc(C#N)c(NC(=S)N2CCN(C(=O)c3ccco3)CC2)cc1OC	0.3%	-0.5	-8	-8	3	-4.6
CCC(=O)c1ccccc1OCC(=O)Nc1c(C)cccc1C	3.4%	0.3	-6	10	3	1.7
COc1ccc(NC(=O)CSc2ccccc2)cc1S(=O)(=O)N1CCCCC1	0.6%	0.3	-5	-6	2	0.6
Cn1c(=S)n(C)c2ccccc21	-1.7%	-0.2	-6	1	/	0.0
CCCCC1NC(=S)N(C2CCCCC2)C1=O (stereo unspecified)	4.0%	2.4	-12	13	-5	-3.2
COc1ccccc1CN1CC(=O)N2CSC[C@H]2C1=O	0.8%	0.2	-2	9	/	0.2
O=C(COc1ccc2c3c(c(=O)oc2c1)CCC3)Nc1ccc(CN2CCOCC2)cc1	4.4%	-1.2	-5	0	1	1.0
CCOc1ccccc1C(=O)N1CCCCC1C (stereo unspecified)	0.9%	0.3	8	7	-5	-1.0
CC1C(=O)N(Cc2cn(CCC3OCCCO3)nn2)CCS(=O)(=O)N1Cc1ccc(-c2ccc(F)cc2)cc1 (stereo unspecified)	1.4%	/	/	-2	-3	-1.2
CCN(CC)CC(=O)Nc1nc(-c2ccc(Cl)cc2)cs1	8.3%	1.6	-2	4	-1	2.1
O=C(Cc1ccccc1F)Nc1nc(-c2cccs2)cs1	0.3%	1.0	0	-2	-1	-0.8
CC(Oc1ccccc1F)C(=O)NNC(=O)c1ccc(F)c(S(=O)(=O)N2CCOCC2)c1 (stereo unspecified)	1.6%	0.8	-17	-1	1	-1.7
Fc1ccc2cnc(C3=CCCCC3)cc2c1	2.7%	0.3	3	8	7	0.2
O[C@@H]1C[C@H](c2ccc(Cl)cc2)N(Cc2cccs2)C[C@H]1n1cc(C2CC2)nn1	-0.6%	0.1	6	3	6	-6.6
COc1ccc(-c2noc(-c3cc(C)cc(C)c3)n2)cc1OC	10.0%	-0.4	-9	-6	7	-5.0
COC(=O)c1ccc(OCC2c3cc(OC)c(OC)cc3CCN2C(=O)c2ccco2)cc1 (stereo unspecified)	-2.6%[38.3 µM]	1.1	0	?	-29	0.5
CCCC1(C(=O)OC)NC(c2cc(OC)c(OC)c(OC)c2)C2C(=O)N(CC)C(=O)C21 (stereo unspecified)	1.3%	0.8	12	6	5	1.8
Cc1cccc(NCc2cccc3ccccc23)n1	9.9%	-0.3	-49	-2	/	-1.7
CCOC(=O)C(=O)Nc1cc(C(=O)OC)cc(C(=O)OC)c1	3.9%	1.3	-2	-1	/	-5.0
COc1ccccc1N(CC(=O)N/N=C/c1ccc(C(=O)O)cc1)S(=O)(=O)c1ccc(C)cc1	-0.7%	-0.9	-18	-3	/	-5.7
COc1ccc2c(c1)C=C([C@@H]1C[C@H]3CN(c4ccccc4)C(=O)[C@]34CCCN14)CO2	2.8%	2.4	-4	-1	-1	-4.4
CCNC(=O)c1oc2c(c1C)C(=O)CC(C)(C)C2	2.6%	-0.9	17	8	4	-0.4
CCN(C[C@H]1N[C@@](C)(C(=O)OC)[C@H]2C(=O)N(Cc3ccccc3)C(=O)[C@@H]12)C(=O)C1CCCCC1	1.1%	0.7	-1	4	-23	-1.2
N#Cc1c(-c2ccc3c(c2)OCO3)ccn2nc(-c3cccc(C(F)(F)F)c3)nc12	18%[38.3 µM]	-0.6	0	2	1	-3.5
Cn1nnc(NC(=O)/C=C/c2ccco2)n1	-0.3%	-0.2	-8	1	-10	-3.6
COc1ccc(OC)c(NC(=O)C2=C(C)NC(=O)NC2c2cccs2)c1 (stereo unspecified)	0.2%	1.1	0	16	24	-6.5
Other results
SMILES	PINK1 expr mod	TRPML1 agonist	D2 PAM	Six1-Eya2 blk	CtBP-E1A blk	D2 agonist
O=C(NCSC1=NCCS1)c1ccccc1	0.0%[38.3 µM]	0.1	1	1	4	-0.2
Cc1ccc(CNC(=O)c2cnc(-c3ccccn3)nc2C(F)(F)F)cc1	-0.9%	0.4	-18	3	-2	-3.5
Nc1ccccc1SCC(=O)N1CCc2ccccc21	-3.1%	1.6	-13	5	-2	-2.2
COc1cc(C(=O)OCCN2CCCCC2)ccc1O	3.7%	1.0	-18	8	7	-3.6
C=C1C(=O)OC2C1C(OC(=O)C(C)=CC)CC(=C)C1C(O)C3OC3(C)C21O (stereo unspecified)	5.7%	0.6	-18	1	-12	1.7
O=C(c1ccccc1)N1CCn2c1nc1ccccc12	2.8%	-0.3	4	-3	1	-1.5
Cc1cc(OCC(O)CNC(C)c2ccccc2)ccc1C(C)C (stereo unspecified)	-1.9%	2.0	-14	16	3	-3.2
Clc1ccccc1-c1nn2c(COc3ccccc3)nnc2s1	?	1.1	-13	-2	0	2.0
O=C(O)c1cccc(N/N=C/c2ccc(F)c(F)c2)c1	2.0%	-1.0	-1	-1	0	0.7
CC1(/[N+]([O-])=C/c2ccccc2F)CCCCC1=O (stereo unspecified)	2.3%	1.4	-9	-1	-3	0.5
Cc1noc(C)c1NC(=O)N(C)C[C@H]1Oc2c(NC(=O)C3CCCCC3)cccc2C(=O)N([C@H](C)CO)C[C@@H]1C	0.0%	-0.6	/	10	-4	-1.2
CCCOc1ccc(Cn2ccnc2)cc1[N+](=O)[O-]	-0.9%	-0.7	2	-3	0	-0.1
Cc1cccc(-c2nc(N)nc(N)n2)c1	0.4%	0.0	-7	-4	4	-2.2
